Screening data (PubChem)
Ecoli growth – E. coli growth inhibition, primary screen, OD600; Escherichia coli growth, 23 h; stronger effect = lower value; OD600 absorbance (no concentration beside the values); 330,000 compounds, 0.21% hits; AID 1053175, 2014;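 active means OD600 absorbance below the run mean of sample wells minus 3.6 SD, in any replicate, cut at about 0.56 in these data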;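 further: stock transfer was 300 nL into about 60 µL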
Active calls of the source: *; & = joins results of further samples. An excerpt. The share of hits here may be higher or lower than overall.

SMILES | Ecoli growth
COc1cc(C=NNC(=S)NCCN2CCOCC2)ccc1O | 0.69
CSc1ccc(C=NN2CCN(Cc3ccccc3)CC2)cc1 | 0.68
O=C1C=C(c2ccc(-c3ccccc3)cc2)CC(c2ccc3c(c2)OCO3)C1 (stereo unspecified) | 0.69
CCCN=C1NC(=Cc2ccco2)C(=O)N1c1ccccc1 | 0.7
CC(CC(=O)Nc1cccnc1)=NNC(=O)c1ccc([N+](=O)[O-])c(Cl)c1 | 0.72
NC(=O)C1CCCCNc2c(I)cc([N+](=O)[O-])cc2C(=O)NC(CCC(=O)O)C(=O)NC(CO)C(=O)N1 (stereo unspecified) | 0.63
Cn1cc(C=NNc2ccccc2)c2ccccc21 | 0.63
COc1ccc(NS(=O)(=O)c2cccc(NC(=NS(=O)(=O)c3ccccc3)c3ccc(F)cc3)c2)cc1 | 0.73
Cc1cccc(NC(=S)NN=C2CC(C)(C)Oc3ccc(O)cc32)c1 | 0.74
C=C1CC2C3CCc4cc(OC)ccc4C3CC[C@]12C (stereo partly specified) | 0.68
CSCCC(NC(=O)NCCC1=CCCCC1)C(=O)O (stereo unspecified) | 0.7
O=C(CC1C(=O)N(C2CCCCC2)CC1Cc1ccccc1)Nc1ccccc1 (stereo unspecified) | 0.7
O=C(NN=Cc1ccccn1)C1CC1 | 0.66
O=[N+]([O-])c1ccc(NN=Cc2cccs2)nc1 | 0.63
COc1cc(C=NNC(=O)C(N)=O)ccc1OCC(=O)N1C(C)CCCC1C (stereo unspecified) | 0.69
CCCCCCCC(N)C(O)C(=O)N(C)C(CCS(C)=O)C(=O)NC(Cc1ccc(O)cc1)C(=O)NC(Cc1ccc(O)cc1)C(=O)O (stereo unspecified) | 0.71
Cc1c(-c2ccc(C=NNC(=O)C(=O)Nc3ccccc3F)o2)cccc1[N+](=O)[O-] | 0.68
O=C(NN=Cc1ccc(F)cc1)c1ccc(Br)cc1 | 0.68
Cc1nc2ccccn2c1C(O)=C1C(=O)C(=O)N(CCN2CCOCC2)C1c1ccncc1 (stereo unspecified) | 0.65
CCOc1ccc(C=NNC(=S)NC2CC3CC2C2C=CCC32)cc1 (stereo unspecified) | 0.69
NC(=O)CCC1NC(=O)C(CO)NC(=O)c2cc([N+](=O)[O-])cc(I)c2NCCC(C(N)=O)NC1=O (stereo unspecified) | 0.69
COC(=O)C1=NN(c2ccccc2)C2(SC(=Cc3ccccc3)C(=O)N2c2ccccc2)S1 (stereo unspecified) | 0.73
Oc1ccc(C=NNc2cccc3cccnc23)c(O)c1 | 0.73
O=C(C=Cc1ccc2c(c1)S(=O)(=O)N(Cc1ccccc1)C2CC(=O)N1CCOCC1)N1CCOCC1 (stereo unspecified) | 0.62
Oc1ccc2ccccc2c1C=NNc1ccccc1 | 0.67
CC(C)C(=NNc1ccccc1[N+](=O)[O-])c1ccccc1 | 0.72
CCOc1ccc(C=NNC(=O)c2ccccc2Cl)cc1CN1CC2CC(C1)c1cccc(=O)n1C2 (stereo unspecified) | 0.66
CC(=O)Nc1ccccc1NC(=O)CC(C)=NNC(=O)C(=O)N1CCCCC1 | 0.66
NC(=O)C(CC(=O)O)NC(=O)C1CCOc2c(I)cc([N+](=O)[O-])cc2C(=O)NC(CCC(=O)O)C(=O)NC(CO)C(=O)N1 (stereo unspecified) | 0.7
COc1cc(C(=O)ON=C2CCCc3c2ccc(OC)c3[N+](=O)[O-])cc(OC)c1OC | 0.79
COc1ccc(-n2c(SCC(=O)NN=C(C)c3cccnc3)nc3ccccc3c2=O)cc1 | 0.73
COc1ccc(C(C)=NNc2nccnc2Cl)cc1 | 0.68
CC(=NNc1ccc(C(=O)O)cc1)c1ccc(Br)cc1 | 0.68
CCOc1ccc(C(O)=C2C(=O)C(=O)N(CC3CCCO3)C2c2ccc(C)o2)cc1 (stereo unspecified) | 0.7
COc1ccc(C=NNC(=S)NC2CCS(=O)(=O)C2)cc1OC (stereo unspecified) | 0.65
CC1=NNC(=O)C1CCC(=O)NN=C/C=C/c1ccccc1 (stereo unspecified) | 0.72
CCCCCC(=O)Nc1cccc(C2=NOC3(C2)CC(C(N)=O)N(C(=O)c2ccc(OC)cc2)C3)c1 (stereo unspecified) | 0.63
COC(=O)CC1c2cc(C(F)(F)F)ccc2S(=O)(=O)N1C1CCCCC1 (stereo unspecified) | 0.67
CCOC(=O)C1=C(C)N=c2sc(=C3C(=O)Nc4ccccc43)c(=O)n2C1c1ccc(C)cc1 (stereo unspecified) | 0.75
COc1ccc(C(C)=NNC(=O)c2ccccc2N)cc1 | 0.66

Two neighbouring records out of the list so far:
SMILES | Ecoli growth
NC(=O)CCC1NC(=O)C(CO)NC(=O)c2cc([N+](=O)[O-])cc(I)c2NCCC(C(N)=O)NC1=O (stereo unspecified) | 0.69
COC(=O)C1=NN(c2ccccc2)C2(SC(=Cc3ccccc3)C(=O)N2c2ccccc2)S1 (stereo unspecified) | 0.73

New compounds follow
SMILES | Ecoli growth
O=C(NN=Cc1cccc2ccccc12)c1cccs1 | 0.68
CN(C)C(=O)C1CC1C(O)C(CO)NC(=O)C(Cc1ccccc1)NC(=O)OC(C)(C)C (stereo unspecified) | 0.7
CCC(=NNC(=O)c1cc(C2CC2)[nH]n1)c1ccccc1 | 0.65
O=C(NN=Cc1cccc(OC(=O)N2CCOCC2)c1)c1cccs1 | 0.71
COC(=O)CC(C)=NNc1ccc(S(=O)(=O)N2CCCC2)cc1[N+](=O)[O-] | 0.72
COc1ccc(CN2CCC(=O)N(C(CO)CC(C)C)CC2)cc1OC (stereo unspecified) | 0.67
COC(=O)c1ccccc1-c1ccc(C=NNC(=O)c2cc3ccccc3o2)o1 | 0.66
COc1ccccc1NC(=O)COc1ccc(C=NNS(=O)(=O)c2ccc(C)cc2)cc1 | 0.74
NC(Cc1ccc([N+](=O)[O-])cc1)=NOC(=O)c1ccco1 | 0.66
Cc1ccc2nc(SCC(=O)NN=Cc3ccco3)cc(C)c2c1 | 0.64
O=C(C[n+]1ccccc1)NN=Cc1cccs1 | 0.72
CCOC1OC(C(=O)NC2CC2)=CC(c2ccc(Br)cc2)C1CCCO (stereo unspecified) | 0.69&0.7
CCN(CC)c1ccc(C=NNC(=O)c2ccoc2C)c(O)c1 | 0.69
COc1ccc(C=NNc2nonc2N)c(OC)c1 | 0.65
CC(C)CN1C(Nc2ccccc2)=NCC1C (stereo unspecified) | 0.68
CCNC(=S)NN=Cc1ccc(OCC(=O)Nc2ccc(C)cc2)cc1 | 0.67
COc1ccccc1/C=C/C=NN1CCN(Cc2ccccc2)CC1 | 0.7
CC(=NNc1nnc2c3ccccc3n(C)c2n1)c1ccc(C)o1 | 0.64
CCCCN(CCCC)C(=O)C[n+]1cccc(C=NO)c1 | 0.71
O=C(O)c1ccc(C=NNC(=O)c2ccc(F)cc2)cc1 | 0.65
Clc1ccc(N2CCN(N=Cc3ccncc3)CC2)cc1 | 0.66
CCn1cc(C=NNC(=O)Cc2ccc(Cl)cc2)cn1 | 0.7
Cc1ccc(-c2csc3ncn(N=CN(C)C)c(=O)c23)o1 | 0.7
Cc1ccc(NN=C(C#N)C(=N)N2CCCCC2)cc1 | 0.62
CSc1nncc(C(C)=NO)n1 | 0.69
S=c1[nH]ncn1N=Cc1cccc(Oc2ccccc2)c1 | 0.68
C(=Nn1cnc2ccccc21)c1cccnc1 | 0.61
COc1ccc(C=Nn2c(SC)nnc(C(C)(C)C)c2=O)cc1OC | 0.75
Cc1ccc(C=NNC(=O)CSc2nc3ccccc3n2C)s1 | 0.66
CC(C(=O)NCc1ccccc1)C1C[C@]1(C)C(NC(=O)OCc1ccccc1)c1ccccc1 (stereo partly specified) | 0.69
S=c1[nH]nc(-c2ccccn2)n1N=Cc1ccc(Cl)cc1 | 0.68
CC1(N2CCCCC2)CC2(O)C(=NO)CCCC2=[N+]1[O-] (stereo unspecified) | 0.74
CCNC(=S)NN=Cc1cccc(C=NNC(=S)NCC)c1 | 0.72
COC(=O)NN=Cc1cccc(OC(=O)c2cccs2)c1 | 0.69
Cn1c(=O)c2c(ncn2CC(=O)NN=Cc2ccc(Br)s2)n(C)c1=O | 0.68
CN(C)c1ccc(C=Nc2cc(-c3ccccc3)nn2-c2ccccc2)cc1 | 0.71
O=C(NN=Cc1ccc2c(c1)OCO2)c1ccc2c(c1)OCCO2 | 0.65
CCc1n[nH]c(=S)n1N=Cc1ccccn1 | 0.6
COc1ccc(C2=CC(=O)CC(c3ccc(OC)c(OC)c3)C2)cn1 (stereo unspecified) | 0.7
Cc1nn(C)c(C(=O)NN=Cc2cccnc2)c1Br | 0.68

Pulled one by one from the list above:
SMILES | Ecoli growth
CC(C(=O)NCc1ccccc1)C1C[C@]1(C)C(NC(=O)OCc1ccccc1)c1ccccc1 (stereo partly specified) | 0.69
Cc1ccc(NN=C(C#N)C(=N)N2CCCCC2)cc1 | 0.62
CCn1cc(C=NNC(=O)Cc2ccc(Cl)cc2)cn1 | 0.7

Carrying on.
SMILES | Ecoli growth
CN(CC(Cc1ccccc1)N(CC(CC1CCCCC1)N(CCc1ccccc1)N=O)N=O)N=O (stereo unspecified) | 0.68&0.69
C#CCOCCOCCOCCNc1nc(N2CCN(C(=O)Cn3cc(CC(C)O)nn3)CC2)nc(N2CCN(C(=O)C(C(C)CC)n3cc(CCCN=C(N)N)nn3)CC2)n1 (stereo unspecified) | 0.68
O=C(Oc1ccc(C=NO)cc1)c1ccccc1 | 0.63
C=C(C)C(=O)Nc1cccc(C2=NOC3(C2)CC(C(N)=O)N(C(=O)CC(c2ccccc2)c2ccccc2)C3)c1 (stereo unspecified) | 0.68
CC(=O)Nc1ccc(-c2csc(NN=C(C)c3ccccc3)n2)cc1 | 0.63
CC(=NOCc1ccccc1C#N)c1cc2ccccc2o1 | 0.69
CCCN(CCC)Cc1c(C(=O)NN=Cc2ccoc2)nnn1-c1nonc1N | 0.7
O=S1(=O)NC[C@]23CC(c4ccc(F)cc4)C(CC21)O3 (stereo partly specified) | 0.69
CCSC1=NC(=Cc2ccccc2)C(=O)N1 | 0.66
COc1cccc(N2C(CC(=O)O)c3ccc(C=CC(=O)O)cc3S2(=O)=O)c1 (stereo unspecified) | 0.67
O=C1C2C(c3ccc(F)cc3)N3C(=O)N(c4cccc(F)c4)C(=O)[C@@]3(Cc3ccc(Cl)cc3)C2C(=O)N1C1CCCCC1 (stereo partly specified) | 0.73
COc1ccc(C(C)=NNC(=O)C2CC2)cc1 | 0.66
C#CCOCCOCCOCCNc1nc(N2CCOCC2)nc(N2CCN(C(=O)CCCCCCCCCCNC(=O)C(C(C)O)n3cc(C)nn3)CC2)n1 (stereo unspecified) | 0.71
C=CCn1cc(C=NNC(=O)c2cc3c(ccc4ccccc43)o2)c2ccccc21 | 0.79
N#Cc1ccc(C23CC4(C2)C(CN(CC2CCCCC2)C4c2ccccc2)C3c2ccc(C(F)(F)F)cc2)cc1 (stereo unspecified) | 0.72
Cc1nnc(C)n1N=Cc1ccccc1 | 0.67
CCOc1cc(C(=O)NN=C/C(Br)=C/c2ccccc2)cc(OCC)c1OCC | 0.7
CC(=O)OCC1OC(CC=NOC(C)c2cn(C(CO)Cc3ccccc3)nn2)C=CC1OC(C)=O (stereo unspecified) | 0.67
COC(=O)NN=C1CCCc2c(C)cc(C)cc21 | 0.62
COc1ccc(S(=O)(=O)Nc2cccc3c2OC(CN(C)C)C(C)CN(C(C)CO)C3=O)cc1 (stereo unspecified) | 0.66
C/C(C=NNC(=O)CN1CCN(Cc2ccccc2)CC1)=C\c1ccco1 | 0.73
COc1cccc(C=Nn2nnc3c(cnn3-c3ccccc3)c2=O)c1 | 0.82
S=c1[nH]nc(-c2ccccn2)n1N=Cc1cccc(Cl)c1 | 0.68
Cc1cc(C=NO)c(C)n1-c1ccccc1 | 0.69
COc1ccc(C=NNC(=O)C(=O)N2CCN(c3ccccc3OC)CC2)cc1 | 0.74
CC(=NNS(=O)(=O)c1ccc(C)cc1C)c1ccc2c(c1)OCO2 | 0.75
c1ccc(-c2ccc(CN3CC4C(c5ccccc5)C5(c6cccnc6)CC4(C5)C3c3ccccc3)cc2)cc1 (stereo unspecified) | 0.73
COc1ccc(C2C=CCN(C(=O)c3ccccc3)CC(=O)N2Cc2ccc(F)cc2)cc1 (stereo unspecified) | 0.67
COc1cc(C=NNC(=O)CSCc2ccc([N+](=O)[O-])cc2)cc(OC)c1OC | 0.72
COC(=O)c1sc(SC)c(S(=O)(=O)C(C)C)c1NN=C(C#N)S(=O)(=O)c1ccccn1 | 0.66
O=C(NN=C/C(Br)=C/c1ccccc1)NC1CCCCC1 | 0.62
CC(=NNC(=O)c1ccc2c(c1)OCO2)c1ccc(NC(=O)C(F)(F)F)cc1 | 0.67
Cc1cccc(C2C3C(=O)N(Cc4ccccc4)C(=O)C3[C@]3(CC(C)C)C(=O)N(c4cccc(Cl)c4)C(=O)N23)c1 (stereo partly specified) | 0.73
CCCCC12CN3CCN(CC(C3)C1=NNC(=O)Nc1ccccc1)C2 | 0.6
O=C(NN=C/C=C/c1ccc2c(c1)OCO2)C(O)c1ccccc1 (stereo unspecified) | 0.61
CC(C)OCCCNC(=O)c1c(N)n(N=Cc2cccs2)c2nc3ccccc3nc12 | 0.71
CC(=NNC(=S)NCc1ccccc1)c1cccs1 | 0.67

Molecules above that have a furan ring, fused or not (13):
SMILES | Ecoli growth
CCCN=C1NC(=Cc2ccco2)C(=O)N1c1ccccc1 | 0.7
Cc1c(-c2ccc(C=NNC(=O)C(=O)Nc3ccccc3F)o2)cccc1[N+](=O)[O-] | 0.68
CCOc1ccc(C(O)=C2C(=O)C(=O)N(CC3CCCO3)C2c2ccc(C)o2)cc1 (stereo unspecified) | 0.7
COC(=O)c1ccccc1-c1ccc(C=NNC(=O)c2cc3ccccc3o2)o1 | 0.66
NC(Cc1ccc([N+](=O)[O-])cc1)=NOC(=O)c1ccco1 | 0.66
Cc1ccc2nc(SCC(=O)NN=Cc3ccco3)cc(C)c2c1 | 0.64
CCN(CC)c1ccc(C=NNC(=O)c2ccoc2C)c(O)c1 | 0.69
CC(=NNc1nnc2c3ccccc3n(C)c2n1)c1ccc(C)o1 | 0.64
Cc1ccc(-c2csc3ncn(N=CN(C)C)c(=O)c23)o1 | 0.7
CC(=NOCc1ccccc1C#N)c1cc2ccccc2o1 | 0.69
CCCN(CCC)Cc1c(C(=O)NN=Cc2ccoc2)nnn1-c1nonc1N | 0.7
C=CCn1cc(C=NNC(=O)c2cc3c(ccc4ccccc43)o2)c2ccccc21 | 0.79
C/C(C=NNC(=O)CN1CCN(Cc2ccccc2)CC1)=C\c1ccco1 | 0.73
